# NPYLR7 agonist: agonists of mosquito NPYLR7 receptor, primary screen, cell-based, Aedes aegypti, calcium fluorescence, mosquito biting behavior | Aedes aegypti neuropeptide Y-like receptor 7 (NPYLR7) | HEK293T NPYLR7/Galpha15, GCaMP6s calcium fluorescence | activation, % at 10 µM | actives 0.15% (n = 270,000) | AID 1259423, 2018; in the data active = activation above about 40%;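 also: 0% = vehicle and 100% = reference agonist at the receptor; some compounds past the cut are filed as inactive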
# NPYLR7 agonist max-min: second read-out of NPYLR7 agonist, no call of its own (marks repeat the call); activation, %; measured here: Max-Min RFU normalised activation; some inactives read as strong as hits;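 span of the calcium signal over five minutes; 0% = vehicle and 100% = native peptide agonist; compound fluorescence can raise it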
# The depositor's hits bear a star; & = joins results of further samples.
SMILES	NPYLR7 agonist	NPYLR7 agonist max-min
O=C(c1cnc2ccccn12)N1CCCC(CCc2cccc(C(F)(F)F)c2)C1 (stereo not given)	-3.4	-2.7
O=C(Nc1cc(C(F)(F)F)ccc1N1CCCCC1)c1ccoc1	-0.1	-1.5
CC(Cc1cccs1)N(Cc1ccccc1)C(=O)Cn1ccccc1=O (stereo not given)	6.5	0.5
COc1cc(C2C(=C(O)c3ccc(C)cc3)C(=O)C(=O)N2Cc2cccnc2)cc(OC)c1OC (stereo not given)	0.5	-5.2
Cn1cc(NC(=O)NC2CCCCC2)c2ccccc21	-3.0	-6.5
COC(=O)C1CCCN1C(=O)c1ccc(S(=O)(=O)N2CC(C)OC(C)C2)cc1 (stereo not given)	1.9	-6.4
O=C(/C=C/c1cccs1)NCc1ccccc1N1CCOCC1	20.3	14.5
O=C(CCC1CCN(C2CCSC2)CC1)Nc1ccccc1Cl (stereo not given)	15.2	6.2
CC1CN(C(=O)c2sc3ccccc3c2Cl)CC(C)O1 (stereo not given)	-1.2	-5.5
CCN1CCN(c2c(CN(CCOC)C(=O)Nc3ccc(Cl)cc3)c(C)nn2-c2cccc(F)c2)CC1	2.0	18.0
CCOc1ccc(-n2nnc(C(=O)OCc3cccc(C(F)(F)F)c3)c2C)cc1	-4.2	-6.3
O=C(Nc1ccccc1)c1ccccc1N=Cc1ccc[nH]1	-12.8	-18.9
C=CCN1C(=O)NC(c2ccccc2F)C2=C1CN(CCCN1CCOCC1)C2=O (stereo not given)	1.7	10.1
CC(C)n1ncc2c(C(=O)Nc3ccc4c(c3)OCO4)cc(C3CC3)nc21	0.0	-0.9
CCCc1cnc(C)nc1N1CCN(C2Cc3ccccc3C2)CC1	15.7	11.1
CCCn1c(N2CCN(Cc3cccc4ccccc34)CC2)nc2c1c(=O)[nH]c(=O)n2C	-10.5	-14.7
COCc1c(C(=O)NC2=NCCS2)sc2cccc(F)c12	11.3	10.7
COc1ccc(CCN2CCC(Nc3nc4ccccc4n3Cc3ccc(F)cc3)CC2)cc1	-29.8&-1.6	-29.8&-3.6
COCCN1CCC(C(=O)N2CCC(Oc3ccccc3F)CC2)C1 (stereo not given)	2.1	57.2
Cc1ccc(NC(=O)CC(=O)NC(CCO)c2ccc(C)cc2)cc1 (stereo not given)	11.5	-0.8
CCN(CC)C(=NC(=O)c1cccs1)OCCOC	-1.8	8.6
Cn1c(N)nnc1SCc1cc(Br)ccc1Cl	-7.6	-9.9
COc1ccc(C)c2sc(N(Cc3ccccn3)C(=O)c3ccco3)nc12	1.4	-4.6
CCn1nccc1C(=O)N(Cc1ccccn1)c1nc2c(OC)ccc(C)c2s1	1.7	3.4
Cc1c(NC(=O)CN2CCc3sccc3C2)cccc1[N+](=O)[O-]	1.4	0.4
Cc1csc2nc(CSc3nc4ccccc4[nH]3)c(Br)n12	0.6	-4.4
CC(=O)N(CN1C(=O)c2ccc([N+](=O)[O-])cc2C1=O)c1cccc(C(=O)O)c1	-0.4	-7.5
Cc1ccc(CNC(=O)C2(C)CCN2C(=O)Cc2ccc(C(C)(C)C)cc2)cc1 (stereo not given)	-2.2	0.3
COc1cccc(C(=O)Oc2coc(CSc3nc(C)cc(C)n3)cc2=O)c1	-15.3	-8.3
COc1ccccc1N1CCN(C(=O)c2cccc(CSc3nc(Cl)cc(N4CCCC4)n3)c2)CC1	19.1	14.8
Cc1nc(SCc2ccc(C(=O)N3CCCC3)cc2)nc(N2CCOCC2)c1C	6.8	15.4
CC1CCN(C(=O)C(NC(=O)c2ccc(Cl)cc2)C(C)C)CC1 (stereo not given)	3.1	0.1
O=C(CCN(CCc1ccccc1)c1nc(-c2ccc(F)cc2)nc2ccccc12)NCc1ccccc1	-17.2	1.4
Cn1nnc2c(=O)n(Cc3ccccn3)cnc21	0.4	1.6
O=C(c1ccccn1)N1CCC(c2cc(-c3ccccc3Cl)n[nH]2)CC1	13.7	8.9
CCc1nc2ccccc2n1CC(=O)N1CCN(c2ccc(F)cc2)CC1	6.8	5.5
COc1ccccc1-c1ccc(C(C)N(C)S(N)(=O)=O)cc1 (stereo not given)	-18.2	-19.4
Cc1noc(C)c1S(=O)(=O)N1CCC(C)C2CCCCC21 (stereo not given)	7.5	3.0
O=C(Nc1ccccc1OC(F)F)c1ccco1	0.2	-0.7
CC(=O)n1cc(/C=C2\N=C(c3ccc(Cl)cc3)OC2=O)c2cc(Br)ccc21	-2.2	-5.6
CCOC(=O)c1c(CN2CCN(CC#N)CC2)n(-c2ccccc2)c2cc(Br)c(O)cc12	-10.0	-13.7
Cc1ccc(CN(Cc2ccc(F)cc2)C(=O)CN(Cc2ccco2)C(=O)C2CCCC2)s1	9.8	9.8
CSCc1ccc(C(=O)N2CCCC(N3CCN(c4ccccc4C)CC3)C2)o1 (stereo not given)	-1.4	-3.9
COc1ccc(-c2ccc(=O)n(CC#N)n2)cc1	7.8	-1.3
Cc1ccnc(NCCNC(=O)CCN2CCCCO2)c1	1.6	-2.2
C=CCn1c(SCC(=O)NCCc2ccccc2)nc2sc3c(c2c1=O)CCC3	-8.0	-11.9
COC(=O)c1cccc(NC(=O)c2cc(OC)ccc2OC)c1	2.2	3.6
Cc1cc(NS(=O)(=O)c2ccccc2)no1	9.9	2.8
O=C1OC(c2cc(F)c(F)cc2Cl)=NC1=Cc1ccco1	2.6	0.3
O=C(Nc1ccc(N2CCCCC2)c(C(=O)NCCc2ccccc2)c1)c1ccc(F)cc1	17.8	20.9
CN(Cc1nc2ccccc2c(=O)[nH]1)S(=O)(=O)c1ccc2c(c1)CCCC2	0.0	-0.3
Cc1ccc(NC(=O)NNC(=O)c2cccn(Cc3cccc(F)c3)c2=O)cc1	3.1	-1.9
CC(=O)Nc1c(-c2ccc(C)cc2)c(=O)c2ccccc2n1C	1.0	0.1
COc1ccc(CCOc2nc(-c3ccco3)n(-c3cccc(NC(=O)Nc4ccccc4C)c3)n2)cc1	-7.2	7.7
NC(=O)C1CCN(C(c2ccc(Cl)cc2)C2Sc3nc(-c4ccco4)nn3C2=O)CC1 (stereo not given)	-11.1	-10.7
Cc1ccn(-c2ccc(N3CCN(S(=O)(=O)c4ccc(-c5ccccc5)cc4)CC3)nn2)n1	-4.1	-6.4
COc1cccc(C(=O)N(Cc2nccn2Cc2ccccc2Cl)CC2CC2)c1	4.6	10.9
Cc1ccccc1-c1nc(CN2CCN(c3ccccc3)C(=O)C2)c(C)o1	-4.7	-5.4
CC1=CC[C@@H]2CN(C(=O)Cc3ccc(-n4nnnc4C)cc3)C[C@@H]2C1	3.5	1.3
C=CC[C@@H]1CC=C[C@@H](C)N1C(=O)c1cn(Cc2ccccc2Cl)nn1	6.8	2.5

# An excerpt of these results, with two lines to a compound:
# Every second line gives: NPYLR7 agonist, NPYLR7 agonist max-min
- CC(=O)Nc1c(-c2ccc(C)cc2)c(=O)c2ccccc2n1C
    1.0, 0.1
- COc1ccc(CCOc2nc(-c3ccco3)n(-c3cccc(NC(=O)Nc4ccccc4C)c3)n2)cc1
    -7.2, 7.7
- NC(=O)C1CCN(C(c2ccc(Cl)cc2)C2Sc3nc(-c4ccco4)nn3C2=O)CC1 (stereo not given)
    -11.1, -10.7
- Cc1ccn(-c2ccc(N3CCN(S(=O)(=O)c4ccc(-c5ccccc5)cc4)CC3)nn2)n1
    -4.1, -6.4
- COc1cccc(C(=O)N(Cc2nccn2Cc2ccccc2Cl)CC2CC2)c1
    4.6, 10.9
- Cc1ccccc1-c1nc(CN2CCN(c3ccccc3)C(=O)C2)c(C)o1
    -4.7, -5.4
- CC1=CC[C@@H]2CN(C(=O)Cc3ccc(-n4nnnc4C)cc3)C[C@@H]2C1
    3.5, 1.3

# (further entries)
SMILES	NPYLR7 agonist	NPYLR7 agonist max-min
COCCN1C[C@H]2COc3cc(OC)ccc3[C@H]2N(S(=O)(=O)c2ccccc2)CCC1=O	27.2	29.1
COCc1nc(CN2CCC(N(C)Cc3ncc(C)o3)C2)cs1 (stereo not given)	3.9	2.7
Cc1ccc(C2(O)CCN(C(=O)c3cn4cc(Cl)ccc4n3)CC2)nc1	1.2	-0.5
CCNC(=O)c1cccc(NC(=O)CN2CCC3CCCCC3C2)c1 (stereo not given)	7.3	5.7
Cc1ccc(C)c(S(=O)(=O)N2CCCC2CNC(=O)C(=O)NCc2ccccc2)c1 (stereo not given)	8.6	1.6
Cc1nn(CC(=O)NC(C)c2cccc3ccccc23)c(=O)c(C#N)c1C (stereo not given)	-0.6	-2.6
C#CCN(Cc1nc(N2CCN(C(=O)c3ccco3)CC2)c2ccccc2n1)C1CCCCC1	17.1	11.0
O=C(O)C(O)C(O)(Cc1ccc(O)cc1)C(=O)O (stereo not given)	9.4	7.3
CCC(C(=O)N1C[C@@H]2[C@H](C1)[C@H]1CC[C@@H]2O1)n1cccn1 (stereo not given in full)	-0.2	8.3
O=C(Cc1ccc(OC(F)(F)F)cc1)NCC1(O)CCOCC1	5.0	3.1
CC(C)(C)c1noc(COc2ccc(O)cc2)n1	9.9	5.4
O=c1n(Cc2noc(C3CC3)n2)nc(C2CCNCC2)n1-c1ccccc1	1.9	1.0
O=C(CN1C(=O)NC(CCc2ccccc2)C1=O)N1CCCCCC1 (stereo not given)	0.6	-2.3
Cc1ccc2c(c1)C1(NCCS1)C(=O)N2Cc1ccccc1 (stereo not given)	3.1	11.6
CC1(c2ccc(Br)cc2)NC(=O)N(CN2CCc3sccc3C2)C1=O (stereo not given)	15.9	10.1
Cc1ccc(C(=O)Nc2cc(C#N)c3sc4ccccc4n3c2=O)cc1	16.0	8.6
O=C(O)c1csc(CSc2nnc(-c3ccncc3)n2-c2cccc(C(F)(F)F)c2)n1	48.5*	45.9*
Cc1ccc2nc(-c3ccc(Cl)cc3)c(NC(C)(C)CC(C)(C)C)n2c1	-3.7	3.4
CCOC(=O)c1c(NC(=O)COc2ccccc2)sc(C(=O)Nc2ccccc2F)c1C	2.4	5.6
Cc1c(C(F)(F)F)nc(-c2ccc(CN3CCN(C)C(=O)C3)cc2)[nH]c1=O	-5.0	-9.5
Cn1c2c(c(=O)c3ccc(Cl)cc31)CCO2	8.3	7.3
CCOc1ccc(/C=C2\N=C(C3CCCCC3)OC2=O)c(O)c1	-9.2	-16.7
CCOC(=O)CNC(=O)CSc1nnc2n1CCN2c1ccc(OC)cc1	-1.3	-1.3
COCCn1c(=O)c2c(nc3n2CCCN3c2ccc(OC)cc2OC)n(C)c1=O	-2.4	-6.9
CCS(=O)(=O)c1ncc(CN2CCSCC2)n1CCCc1ccccc1	7.7	0.7
O=S(=O)(c1ccc(Cl)cc1)N1CCSC1c1ccco1 (stereo not given)	-3.8	-4.6
NC(=O)C1(c2nc(CCc3ccccc3)nn2-c2ccccn2)CC1	0.0	-4.0
C=CCn1c(SCC(=O)NCc2ccccc2Cl)nc2c([nH]c3ccccc32)c1=O	0.5	-0.4
Cc1cc(C(=O)Nc2cccc(NC(=O)Cc3ccccc3)c2)n[nH]1	-3.2	-4.0
CCOC(=O)c1nn(-c2ccc(Cl)cc2)c(=O)c2c(NC(=O)CCCCl)scc12	9.6	2.7
O=C1O[C@H](C(O)CO)C(O)=C1O (stereo not given in full)	-9.1	-12.7
CC(=O)c1cc(C#N)c(SCC(=O)c2ccc(O)c(O)c2)nc1C	-5.6	-10.8
COc1cccc(CSc2nnc(C(C)NC(=O)Nc3ccccc3OC)n2-c2cc(Cl)ccc2C)c1 (stereo not given)	16.1	20.7
COc1ccc(C(=O)NC2CC2)c(OC2CCN(Cc3cnc(N(C)C)s3)CC2)c1	5.9	4.4
O=C1CC(C(=O)O)c2ccccc21 (stereo not given)	-3.0	-4.6
COc1ccc(C(=O)Nc2c(N)nc(SCC(=O)Nc3ccc(C)cc3)[nH]c2=O)cc1OC	2.4	1.6
Cc1c(Cl)cccc1NC(=O)CCC(=O)N/N=C\c1ccc[nH]1	-11.1	-19.0
Cc1cc(C(=O)OC(C)C(=O)NC(C)(C)C)c(C)n1Cc1ccco1 (stereo not given)	13.6	7.8
Cc1ncoc1C(=O)N1CCC(Oc2ccc(C(=O)NCCc3ccccc3)cc2)CC1	4.4	4.6
CN1CCCn2nc(C(=O)N(C)CCC(O)c3ccccc3)cc2C1 (stereo not given)	7.9	4.5
CC1(C(=O)Nc2ccncc2)CCN1Cc1c(F)cccc1F (stereo not given)	3.8	-2.7
CC(=O)Nc1ccc(CN2C(=O)C(C)ON=C2c2cccc(Cl)c2)cc1 (stereo not given)	5.1	8.1
O=C(Nc1cccc(Oc2cnccn2)c1)C1CCCC1	-0.3	0.6
Cc1ccc(C)c2sc(N(CCCn3ccnc3)C(=O)c3ccco3)nc12	-9.3	-9.3
Cc1ccc(C2=NOC(CN(Cc3cccc(Cl)c3)C(=O)c3cccc(F)c3)C2)cc1 (stereo not given)	17.0	14.9
CCc1nnc(NC(=O)CSc2nc3c([nH]c4ccccc43)c(=O)n2C)s1	1.3	34.4
C/C=C(\C)C(=O)O[C@@H]1c2c(ccc3ccc(=O)oc23)OC(C)(C)[C@@H]1OC(C)=O	-4.9	-5.7
CC1(C)Cc2ccccc2C(C(C#N)C(=O)Nc2ccccc2)=N1 (stereo not given)	3.9	1.3
O=C(Nc1cccc(-c2cccc(-c3ccc(F)cc3)n2)c1)C1=COc2ccc(Cl)cc2C1	27.8	23.9
COCC(=O)N1CCC(C(NC(=O)c2ccc(F)cc2)C(=O)N2CCCC2)CC1 (stereo not given)	4.4	2.2
COC(=O)Cn1c(=NC(=O)c2ccccc2[N+](=O)[O-])sc2c(C)cc(C)cc21	2.0	1.4

# Only part of the results is shown, so the mix of outcomes need not match the whole.
